Screens (PubChem BioAssay)
H5N1 antiviral: MDCK cell protection from H5N1 avian flu | AID 740 | inhibition, % at 50 µM | cytopathic effect, luminescence, 72 h; stronger effect = higher value; no value below 0 was filed and about half of the inactive calls have no number; reference of the scale not given here | 0.07% of 96,000 active; in the data active = inhibition above about 25%
Active calls of the source: *; i = inactive.

SMILES | H5N1 antiviral
Cc1cc(C)cc(N2CCCn3c2nc2c3c(=O)n(CC(=O)OCc3ccccc3)c(=O)n2C)c1 | 2.3
Cc1ccc(C2Nc3ccccc3C(=O)N2Cc2ccco2)cc1 (stereo unspecified) | i
C=CCc1cccc2cc(C(=O)N(C)C)c(=O)oc12 | i
CCOc1cc(C(=O)O/N=C(\N)c2ccc([N+](=O)[O-])cc2)cc(OCC)c1OCC | i
CC1=CC(=C2C(=O)NC(=S)NC2=O)C=C(C(F)(F)F)N1C | 1.3
O=C(c1ccccc1)c1cccc(NC(=O)c2ccco2)c1 | i
COc1ccccc1Nc1nc(N)nc(CSc2nncn2C)n1 | 1.5
CCCC(=O)C1=C(O)C(C(=O)OC)C(C)(C)CC1=Nc1ccc(N)cc1 (stereo unspecified) | 0.5
O=C(CSc1nc2cc(Cl)ccc2s1)c1ccco1 | 0.4
COc1ccc2ccc(Oc3ncccn3)cc2c1 | 0.2
CC1CCCCN1S(=O)(=O)c1cccc2cccnc12 (stereo unspecified) | 1.7
Clc1ccc(COn2c(-c3ccc(Cl)cc3)nc3ccccc32)cc1 | 1.1
CCOC(=O)c1sc(NC(=O)CCN2CCOCC2)c(C(=O)OCC)c1C | 0.7
CS(=O)(=O)Nn1cnc2ccccc2c1=O | i
COc1ccc2nc(C)cc(N3CCOCC3)c2c1 | 0.1
O=C1C2CCN(CC2)C1Cc1ccccc1O (stereo unspecified) | 0.6
Cc1ccc(S(=O)(=O)Nc2cccc(/C=C/C(=O)O)c2)cc1 | i
CC(=O)CSc1nnc(-c2ccncc2)n1C | i
O=C(O)C1CCCCC1C(=O)Nc1ccccc1F (stereo unspecified) | 0.1
CCCCCCCCOc1ccc(C2OC34CCCCC3C(C#N)(C#N)C2(C#N)C(=N)O4)cc1 (stereo unspecified) | 1.2
CC(C)(C)C(=O)Nc1ccc(C(=O)N/N=C/c2ccccc2OC(=O)c2ccccc2)cc1 | i
Cc1ccnc(NC(=O)C2CCN(S(=O)(=O)c3cccc4nsnc34)CC2)c1 | i
Cc1ccc(S(=O)(=O)N2CCN(S(=O)(=O)N3CCOCC3)CC2)cc1 | i
Cc1sc2ncn3ncnc3c2c1C | 0.3
CCN1C(=O)/C(=C2/C=CC=CN2C)OC1=S | 0.3
CCC(C)c1ccc(NC(=S)NCc2cccs2)cc1 (stereo unspecified) | i
O=C(NCc1ccco1)C1CC(=O)N(c2ccc(F)cc2)C1 (stereo unspecified) | 0.9
Cc1ccc(CC(CC(=O)O)C(=O)NC2CCCCC2)cc1 (stereo unspecified) | 1.2
O=S(=O)(N1CCCCC1)N1CCN(S(=O)(=O)N2CCCCC2)CC1 | 0.4
Cn1nnnc1SCC(=O)Nc1ccccn1 | 3.1
Cc1ccc2nsnc2c1NC(=O)c1ccc2c(c1)OCCO2 | 0.2
O=S(=O)(c1ccc(F)c(Cl)c1)N1CCCC1 | 0.2
O=C(c1n[nH]c(=O)c2ccccc12)N1CCN(C2c3ccccc3-c3ccccc32)CC1 | 5.3
COc1ccc(C2C(=O)N(C3CCCCC3)CC(=O)N2C2CCCC2)cc1 (stereo unspecified) | i
N#CCSc1nc2[nH]ncc2c(=O)n1-c1ccccc1Br | 0.1
CCOc1ccc2nc(NC(=O)c3ccoc3C)sc2c1 | i
O=C(CSCc1nc2ccccc2[nH]1)Nc1ccc2ccccc2c1 | 1.2
CCOC(=O)C1CCN(S(=O)(=O)c2ccc(OC)c(OC)c2)CC1 | 0.2
O=C(OCC(=O)N1CCN(C(=O)c2ccco2)CC1)c1cn(-c2ccccc2)nc1-c1ccccc1 | i
N=c1c(C(=O)NCc2ccc3c(c2)OCO3)cc2c(=O)n3ccccc3nc2n1Cc1cccnc1 | 3.2
CCN(CC)c1nc2n(c(=O)n1)CCN2CC | i
Cc1ccc(C(=O)Nc2ccc(S(=O)(=O)N3CCc4ccccc4C3)cc2)o1 | 0.1
Cn1c(CN2CCOCC2)nnc1SCc1ccccc1 | 0.3
Cc1ccc(CCNC(=O)C23CN(Cc4ccccc4)CC2C(c2cccc([N+](=O)[O-])c2)=NO3)cc1 (stereo unspecified) | 2.1
Cc1nn(CC(=O)Nc2ccccn2)c(C)c1[N+](=O)[O-] | 0.9
Nc1c(C(=O)CCC(=O)O)oc2ccc(Cl)cc12 | i
COc1ccc(C(N)=O)cc1N | i
COc1ccccc1-c1cc(C(=O)Nc2c(F)cc(F)cc2Br)no1 | i
CCCn1c(SCC(=O)N2c3ccccc3CCc3ccccc32)nc2c1c(=O)n(C)c(=O)n2C | i
O=C(/C=C/Nc1ccc(F)c(Cl)c1)c1ccco1 | 1.6
More compounds:
SMILES | H5N1 antiviral
COc1ccccc1OCc1nnc(SCC(=O)c2cc(Cl)ccc2OC)o1 | 2.1
Nc1ccc(-c2nc3ccc(-c4nc5ccccc5o4)cc3[nH]2)cc1 | i
Cn1c(=O)c2[nH]c(N3CCOCC3)nc2n(-c2ccccc2)c1=O | 1.8
CCC(=O)Nc1ccc(Nc2ccccc2)cc1 | i
CCCCc1ccc(CC2S/C(=C(\C#N)C(=O)N3CCOCC3)N(c3ccccc3)C2=O)cc1 (stereo unspecified) | 0.4
CCCS(=O)(=O)c1cn2cccc(N)c2c1S(=O)(=O)CCC | i
O=C(NCCc1c[nH]c2ccc(Cl)cc12)c1cccnc1 | 0.4
Cc1nccn1CCc1nc(N)nc(N)n1 | i
CCOc1ccc(-c2cc(C)n3nc(C(N)=O)cc3n2)cc1 | i
Cc1ccc2c(c1)c1c(n2CC(O)CNC(CO)(CO)CO)CCCC1 (stereo unspecified) | i
CCOC(=O)c1c(=O)n(O)c2ccc(OC)cc2[n+]1[O-] | 0.1
CC(=O)NC12CC3CC(C)(C1)CC(NC(C)=O)(C3)C2 | i
COc1ccc(NCc2cc3cc(OC)ccc3[nH]c2=O)cc1 | 0.5
Cc1ccn2cc(CSc3ccccc3N)nc2c1 | i
CC(=O)c1cc(C#N)c(SCc2ccncc2)nc1C | i
COc1ccc(C(=O)n2nc(-c3ccccc3)nc2SC)cc1 | i
O=C(CN1CCOCC1)Nc1ccc(Oc2ccc(NC(=O)CN3CCOCC3)cc2)cc1 | 2.4
Nc1nc(CN2CCCCC2)cs1 | 0.7
FC(F)(F)C1=CC(c2ccc(Br)cc2)=NCCN1 | i
COc1ccc(NC(=O)C2CC(=O)NC(Nc3cccc(C)c3)=N2)cc1 (stereo unspecified) | 0.2
COc1ccc(S(=O)(=O)N(C)CC(=O)N2CCOCC2)cc1 | 0.1
CCOc1cc(C)c(Cl)cc1S(=O)(=O)n1cnc2ccccc21 | 0.9
CS(=O)(=O)N1CCc2cc(-c3csc(NC(=O)C(c4ccccc4)c4ccccc4)n3)ccc21 | i
COc1ccc(OC)c(NC(=O)Cn2c(=O)n(CC(=O)NCc3ccco3)c(=O)c3ccccc32)c1 | 0.7
c1ccc(C2OCC3(CO2)COC(c2ccccc2)OC3)cc1 (stereo unspecified) | i
CC(=O)NC(Cc1ccc(F)cc1)C(=O)N1CCN(C(=O)NCc2ccccc2)CC1 (stereo unspecified) | i
ON=Cc1cccn1-c1ccccc1 | i
CCCCCNC(=O)c1ccccc1SC | i
Cc1ccc(NP(=O)(Oc2ccccc2F)Oc2ccccc2F)cc1 | i
CC(C)OCCCNc1ncc2c(n1)CC(c1ccc(N(C)C)cc1)CC2=O (stereo unspecified) | 1.1
OC1(c2ccc(F)cc2)CCN(Cc2ccccc2)C1 (stereo unspecified) | i
COc1ccc(C(=O)c2sc(NC(C)C)nc2N)cc1OC | 14
CCOc1cc(C(=O)NCC2CCCO2)cc(OCC)c1OCC (stereo unspecified) | 0.2
COc1ccc(Cc2nc3ccc(S(=O)(=O)N4CCOCC4)cc3[nH]2)cc1 | 0.4
COc1ccc(S(=O)(=O)n2ccc(-c3cnc(-c4ccccc4)s3)n2)cc1 | i
O=C(Nc1ccccn1)c1cccs1 | 3.7
Cc1nn2c(=O)c(NC(=O)c3ccc(F)cc3)cnc2s1 | i
COC(=O)N1CCN(c2ccc(OC)cc2)CC1 | i
O=C(NCC1CCCO1)C1CC(=O)N(c2ccc(F)c(Cl)c2)C1 (stereo unspecified) | 0.8
O=C1NC2(CCCCC2)N=C1c1ccc(F)cc1 | i
CCCCNc1nc(-c2ccccc2)c(C(=O)OCC)cc1C#N | i
NC(=O)COC(=O)c1cc(S(=O)(=O)N2CCOCC2)ccc1N1CCCCC1 | 0.3
CCOC(=O)/C(C(N)=NCc1ccco1)=C(/O)c1ccccc1 | i
Cc1ccc(-c2noc(CSc3nnc(Cc4ccccc4)n3-c3cccc(C)c3)n2)cc1 | 7.4
CCN1CCN(Cc2c(C)[nH]c3ccc(OC)cc3c2=O)CC1 | i
COc1ccc(S(=O)(=O)NC2CCCC2)cc1Br | 0.3
COc1ccccc1N1CCN(CCCCOc2ccc(F)cc2)CC1 | i
CCN(c1ccccc1)S(=O)(=O)c1cccc(C(=O)O)c1 | 0.5
CCOC(=O)N1CCC(N2CCN(S(=O)(=O)c3ccc4ccccc4c3)CC2)CC1 | i
COc1nc(-c2ccccc2)cc(-c2ccc(OC)c(OC)c2)n1 | 0.2
The listing continues.
SMILES | H5N1 antiviral
Cc1cc(N2CC(C(=O)O)CC2=O)ccc1Br (stereo unspecified) | 0.6
Cn1/c(=N/N=C/c2ccc(Cl)c([N+](=O)[O-])c2)sc2ccccc21 | i
Brc1ccc(-c2noc(COc3ccc4ccccc4c3)n2)o1 | i
Cc1ccc(CSc2nnc(-c3ccc4c(c3)OCO4)o2)cc1 | 0.5
Cc1ccc(NC(=O)CCCCCC2NC(=O)NC2C)cc1 (stereo unspecified) | 0.1
COc1cc(C(=O)O)ccc1OC(C)=O | 0.1
COc1ccc(CC(=O)Nc2ccc(S(=O)(=O)Nc3cc(C)on3)cc2)cc1 | i
CC1(C)C(c2ccc(Cl)cc2)=[N+]([O-])C2(CCCC/C2=N\O)N1O (stereo unspecified) | 0.1
CC(=O)Cn1c(CN2CC(C)CC(C)C2)nc2c1c(=O)n(C)c(=O)n2C (stereo unspecified) | i
Cc1cc(C(F)F)n2nc(C(=O)NCc3ccccc3F)nc2n1 | 0.7
CCCCNCCOCCOc1ccc(F)cc1 | 0.8
COC(=O)C1C(=O)C2=C(CC1C)NC(C)=C(C(=O)OC1CCCC1)C2c1ccc(N(C)C)cc1 (stereo unspecified) | 0.2
COC(=O)Cn1ncc2c3ccccc3n(Cc3ccccc3)c2c1=O | 1.2
CN(C)CCNc1nc(-c2ccccc2)c2c(c1C#N)CC(C)(C)OC2 | i
Cc1cccc(OCC(=O)N2CCN(C(=O)CCC3CCCC3)CC2)c1 | i
CC(=O)NS(=O)(=O)c1cccnc1Nc1ccc(Cl)c(Cl)c1 | 0.5
Cc1ccc(-c2nn(C)c(=O)c3ccccc23)cc1S(=O)(=O)NCCO | 3.0
Cc1noc(C)c1S(=O)(=O)Nc1ccc(C(=O)NCc2ccccc2)cc1 | i
Cc1ccc(C(=O)NC(=S)Nc2cc(-c3nc4ccccc4s3)ccc2C)cc1 | i
Cn1cccc1Cc1nnc(SCC(=O)Nc2ccccc2)n1-c1ccc(F)cc1 | i
CN(c1ccc(C(=O)NC2CC2)cc1)S(=O)(=O)c1ccccc1 | i
COc1ccc(/C=C2\CCc3ccccc3C2=O)cc1OC | i
COc1ccc2nc3c(cc2c1)c(NC(=O)c1cccs1)nn3CC(C)C | 1.8
CCN(CCNC(=O)CCCn1nc(C)n2c(cc3sccc32)c1=O)c1ccccc1 | 0.5
Cc1nn(C)c(C)c1/C=N/O | i
CC(/C=N/NC(=O)Cc1cccs1)=C\c1ccco1 | 1.6
O=C(NCCCN1CCC(Cc2ccccc2)CC1)C1CC(=O)N(C2CCCCCC2)C1 (stereo unspecified) | i
Cn1c(CC(=O)Nc2ccc(Cl)c(Cl)c2)nnc1SCC(=O)Nc1nccs1 | i
CC1(C)CC(=O)C(C=NC2CC(C)(C)NC(C)(C)C2)=C(O)C1 | i
O=C(Cc1cccc2ccccc12)Nc1ccccc1C(=O)O | i
O=C(Cc1ccccc1)Nc1ccc2oc(-c3ccncc3)nc2c1 | i
CC(=O)c1cccc(NC(=O)NC(C)c2ccncc2)c1 (stereo unspecified) | 2.2
CCOC(=O)CNC(=O)CSc1nc(N(C)C)nc(N2CCOCC2)n1 | i
O=C(Cn1nnc2ccccc2c1=O)Nc1cc(C(F)(F)F)ccc1N1CCOCC1 | i
c1ccc(-n2ncc3c2ncn2nc(-c4ccco4)nc32)cc1 | 0.3
Cc1ccc(C(C(=O)NC2CCCCC2)N2CCCC2)cc1 (stereo unspecified) | i

Ordered by SMILES length (lowest first): 12 of the compounds above
SMILES | H5N1 antiviral
Cc1nn(C)c(C)c1/C=N/O | i
CC(/C=N/NC(=O)Cc1cccs1)=C\c1ccco1 | 1.6
COc1ccc(/C=C2\CCc3ccccc3C2=O)cc1OC | i
Cc1ccc(C(C(=O)NC2CCCCC2)N2CCCC2)cc1 (stereo unspecified) | i
O=C(Cc1ccccc1)Nc1ccc2oc(-c3ccncc3)nc2c1 | i
CCOC(=O)CNC(=O)CSc1nc(N(C)C)nc(N2CCOCC2)n1 | i
COc1ccc2nc3c(cc2c1)c(NC(=O)c1cccs1)nn3CC(C)C | 1.8
CC1(C)CC(=O)C(C=NC2CC(C)(C)NC(C)(C)C2)=C(O)C1 | i
Cn1cccc1Cc1nnc(SCC(=O)Nc2ccccc2)n1-c1ccc(F)cc1 | i
Cc1ccc(C(=O)NC(=S)Nc2cc(-c3nc4ccccc4s3)ccc2C)cc1 | i
CCN(CCNC(=O)CCCn1nc(C)n2c(cc3sccc32)c1=O)c1ccccc1 | 0.5
O=C(NCCCN1CCC(Cc2ccccc2)CC1)C1CC(=O)N(C2CCCCCC2)C1 (stereo unspecified) | i

An excerpt (hit frequency here may not be typical).
